Mtb hypoxia rep: reduces hypoxia-regulated biosensor signal in M. tuberculosis; M. tuberculosis hypoxia-regulated fluorescent reporter, fluorescence; fluorescence inhibition, % (concentration not given with the values); 0.1% of 300,000 active; AID 1159583;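 active = 35 to 45% if threefold the growth effect, above 45% if 1.5-fold the growth effect; inactive = the rest, general growth blockers included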;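 also: wells of about 50 µL received 100 nL stock; 0% = vehicle wells and 100% = reference inhibitor wells; whole bacteria with a GFP reporter of the hypoxia response; strong numbers were not always called active; many hits fall short of the cut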
BJeLR viability: BJeLR cell viability loss. BJeLR (HRASV12) viability, CellTiter-Glo ATP luminescence, 48 h; reference of the scale not given here. inhibition, % (concentration not given with the values). 0.17% of 300,000 active. AID 1554;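 active = replicate mean above 50%; inconclusive = above 50% but judged a plate artefact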;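 also: 50 nL library stock added to about 25 µL; numbers are from one replicate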
Sa RN4220 lethal: S. aureus RN4220 growth inhibition; inhibition, % (concentration not given with the values); 0.33% of 330,000 active; AID 1259311; OD600, 16 h;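 active = z-score of -3 or lower and OD600 up to 0.18 on both plates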;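 also: plate controls were untreated cells for no effect and reference antibiotic for full effect; stock transfer was 100 nL into about 80 µL; one replicate is shown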
Bead autofluor: counter-screen for toxin protease inhibitors: compound fluorescence. 3.1% of 360,000 active. fluorescence intensity (test concentration not listed). AID 624483. compound autofluorescence counterscreen, microsphere flow cytometry; active compounds read high;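 active = at least 3 SD above the mean of all compounds, about 16000 in these data; inconclusive = too few beads counted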;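 also: 100 nL of 1 mM stock went into each well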
PrP 5UTR inh: inhibition of PrP 5' UTR reporter expression; cell-based PrP 5' UTR mRNA reporter, plate reader; inhibition, % (no concentration beside the values); 0.35% of 340,000 active; AID 488862;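 active = every replicate at 50% or more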;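 also: 0 = median of the neutral control wells; tested in H4 reporter cells; numbers are from one replicate; inactives centre near -14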
ugtP null kill: growth inhibition of S. aureus ugtP deletion strain; S. aureus RN4220 ugtP deletion, OD600 growth, 16 h; some inactives read as strong as hits; 0.54% of 330,000 active; growth inhibition, % (concentration not given with the values);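 active = z-score under -3 and OD600 up to 0.15 on both plates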;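 also: plate controls were untreated wells for no effect and antibiotic for full effect; wells of about 80 µL received 100 nL stock; the first replicate is given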
Mtb hypoxia rep growth: also measured in Mtb hypoxia rep; calls as there; growth inhibition, %; measured here: M. tuberculosis growth (absorbance);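 0% = vehicle and 100% = reference antibiotic; read after six days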
Active calls of the source: *; ? = inconclusive; . = no result given.

1. Cc1cc(C)n(-c2nc(Nc3ccccc3)nc(-n3nc(C)cc3C)n2)n1
2. CNC(=O)c1cc2ccccc2o1
3. CCn1c(C)nc2cc(C(=O)NN=Cc3ccccc3C)ccc21
4. CCn1c(O)c(N=Nc2cccc(S(=O)(=O)N3CCOCC3)c2)c(=O)n(CC)c1=S
5. Cc1c(C(=O)NCCO)sc2nc3n(c(=O)c12)CCC3
6. CCOc1ccc(S(=O)(=O)Nc2cccc(C(=O)N3CCN(C(C)=O)CC3)c2)cc1
7. COc1ccc2sc(N(CCCN(C)C)C(=O)c3ccc(S(=O)(=O)N4CCCC4)cc3)nc2c1
8. Cc1ccc(-c2n[nH]c(=S)n2/N=C/c2cccs2)cc1
screen / no.,1,2,3,4,5,6,7,8
Mtb hypoxia rep,-0.3,.,6.6,14.7,4.5,1.8,7.5,.
Mtb hypoxia rep growth,-5.3,.,11.0,2.5,-2.3,-1.8,1.0,.
BJeLR viability,-3.9,1.6,.,-11.9,-5.7,3.9,-3.5,-6.2
Sa RN4220 lethal,7.3,-0.7,3.0,2.8,-0.5,0.3,2.4,.
Bead autofluor,7863,4643,.,4844,2107,?,4545,2126
PrP 5UTR inh,-19.6,-22.2,.,-24.0,-14.8,-26.1,-19.2,-23.4
ugtP null kill,-3.1,-3.1,0.5,11.5,10.2,6.9,9.9,.

9. O=C(NC(=S)N1CCN(c2ccc(F)cc2)CC1)C12CC3CC(CC(C3)C1)C2
10. O=C(Nc1ccc(F)cc1)c1cccnc1N1CCCCC1
11. CC(C)CCN1CCN(C2CCN(c3ccc4c(c3)OCO4)CC2)CC1CCO (stereo unspecified)
12. O=C(NCCCCc1ccccc1)Nc1ccc(F)cc1
13. Cc1cc(C(=O)CN2C(=O)c3ccccc3S2(=O)=O)c(C)n1C(C)C
14. Cc1cc(NC(=O)CN(C)CC(=O)Nc2ccc(Cl)c(C(F)(F)F)c2)no1
15. Cc1ccccc1Cn1cnc2c([N+](=O)[O-])c(C)c(C)cc21
16. CC1CCN(C(=O)Cn2cc([N+](=O)[O-])ccc2=O)c2ccccc2S1 (stereo unspecified)
screen / no.,9,10,11,12,13,14,15,16
Mtb hypoxia rep,3.0,7.9,-2.5,10.3,2.2,4.8,-4.1,-5.2
Mtb hypoxia rep growth,-1.8,0.1,2.7,-6.4,-3.2,1.1,0.5,-3.1
BJeLR viability,3.1,-5.2,4.8,3.5,.,.,-19.1,.
Sa RN4220 lethal,6.2,2.0,3.2,-1.0,5.2,10.1,1.7,-1.7
Bead autofluor,3915,21821*,2449,6311,2854,6291,21365*,3108
PrP 5UTR inh,-27.4,-8.4,-0.3,-4.4,60.3*,-13.6,-0.5,4.2
ugtP null kill,1.9,-0.5,2.6,-2.3,5.8,11.4,-5.9,-2.6

17. Cn1c(=O)cc(SCC(=O)NCCC2=CCCCC2)c2ccc(Cl)cc21
18. Cc1ccccc1CN1CCN(C(=O)c2ccco2)CC1
19. C=CCNC(=S)NNC(=O)c1ccc(Br)o1
20. CN1CCc2c(sc(NC(=O)C3CCCCC3)c2C(N)=O)C1
21. Cc1ccccc1Nc1nc(N)nc(CSc2ccc(F)cc2)n1
22. Cc1ccc(-n2c(SCC(=O)N3CCOCC3)nnc2-c2cccnc2)cc1C
23. CC(C)[C@H](NC(=O)C1CC(=O)N(c2ccc(F)cc2)C1)C(=O)N1CCCCC1 (stereo partly specified)
24. CCOc1ccc(NC(=S)N(CCN2CCOCC2)Cc2ccc3c(c2)CCCN3CC)cc1
screen / no.,17,18,19,20,21,22,23,24
Mtb hypoxia rep,10.7,10.9,3.5,7.5,-2.6,.,4.4,1.2
Mtb hypoxia rep growth,-1.7,3.2,1.7,3.3,9.4,.,-0.8,8.3
BJeLR viability,3.6,-5.4,-0.9,1.2,-0.4,-4.4,-2.0,16.0
Sa RN4220 lethal,-2.8,2.2,5.0,-11.5,3.8,1.7,5.7,5.5
Bead autofluor,1877,3383,2420,4674,4443,2677,4081,4618
PrP 5UTR inh,-13.5,-15.5,-10.6,-15.7,-60.5,-75.8,-2.1,.
ugtP null kill,-4.9,2.9,2.1,0.6,-2.5,1.6,6.0,21.2

Entries by screen from above:
Entries 6 to 9 in Bead autofluor read ?, 4545, 2126, 3915
Entries 6 to 9 in Mtb hypoxia rep growth read -1.8, 1.0, ., -1.8

Record cards (already shown). Order of values: Mtb hypoxia rep, Mtb hypoxia rep growth, BJeLR viability, Sa RN4220 lethal, Bead autofluor, PrP 5UTR inh, ugtP null kill
Cc1ccccc1CN1CCN(C(=O)c2ccco2)CC1 is entered as 10.9, 3.2, -5.4, 2.2, 3383, -15.5, 2.9
CN1CCc2c(sc(NC(=O)C3CCCCC3)c2C(N)=O)C1 is entered as 7.5, 3.3, 1.2, -11.5, 4674, -15.7, 0.6
CCOc1ccc(NC(=S)N(CCN2CCOCC2)Cc2ccc3c(c2)CCCN3CC)cc1 is entered as 1.2, 8.3, 16.0, 5.5, 4618, ., 21.2

Other structures
25. CCCCn1c(SCC(=O)c2ccc3c(c2)OCCO3)nnc1-c1ccoc1C
26. COc1ccc(N(CC(=O)N/N=C/c2ccccc2OC)S(=O)(=O)c2ccccc2)cc1
27. COC(=O)c1ccc(/C=N/n2c(C)nc3ccccc3c2=O)cc1
28. C=CCNC(=S)NNC(=O)COc1ccc(Cl)cc1Cl
29. COc1ccccc1N1CCN(Cc2nc3ccccc3[nH]2)CC1
30. Cc1ccc(C)c(C(=O)C(C)OC(=O)CN2C(=O)NC3(CC(C)CC(C)(C)C3)C2=O)c1 (stereo unspecified)
31. CC(=O)C1=C(NC(=O)c2ccc(C(F)(F)F)cc2)C[C@@H]2[C@H]1C2(C)C
32. CCOC(=O)C(=O)c1c(C)cc2ccccn12
33. CCC(=O)Nc1c2c(nn1-c1cccc(Cl)c1)CS(=O)(=O)C2
34. COc1ccc(C(O)c2nccn2Cc2ccccc2)cc1OC (stereo unspecified)
screen / no.,25,26,27,28,29,30,31,32,33,34
Mtb hypoxia rep,5.8,.,.,7.1,11.5,12.9,2.1,2.2,13.1,4.9
Mtb hypoxia rep growth,7.2,.,.,14.8,-2.3,-1.9,0.6,-4.6,6.4,11.2
BJeLR viability,-3.4,-0.3,-13.4,5.4,-8.5,6.9,-0.6,.,-3.2,1.8
Sa RN4220 lethal,10.7,.,.,4.9,-1.2,0.7,1.8,2.8,2.2,6.0
Bead autofluor,4552,3770,2774,2473,6455,6239,4486,2434,5285,10449
PrP 5UTR inh,-1.8,-17.6,-18.3,-41.1,-2.0,-19.3,-0.7,-14.6,-6.1,-15.0
ugtP null kill,-9.2,.,.,-26.8,11.7,-17.4,3.3,0.9,-0.8,1.1

Retrieved by structure from the entries so far:
25. CCCCn1c(SCC(=O)c2ccc3c(c2)OCCO3)nnc1-c1ccoc1C
26. COc1ccc(N(CC(=O)N/N=C/c2ccccc2OC)S(=O)(=O)c2ccccc2)cc1
32. CCOC(=O)C(=O)c1c(C)cc2ccccn12
30. Cc1ccc(C)c(C(=O)C(C)OC(=O)CN2C(=O)NC3(CC(C)CC(C)(C)C3)C2=O)c1 (stereo unspecified)
29. COc1ccccc1N1CCN(Cc2nc3ccccc3[nH]2)CC1
31. CC(=O)C1=C(NC(=O)c2ccc(C(F)(F)F)cc2)C[C@@H]2[C@H]1C2(C)C
34. COc1ccc(C(O)c2nccn2Cc2ccccc2)cc1OC (stereo unspecified)
screen / no.,25,26,32,30,29,31,34
Mtb hypoxia rep,5.8,.,2.2,12.9,11.5,2.1,4.9
Mtb hypoxia rep growth,7.2,.,-4.6,-1.9,-2.3,0.6,11.2
BJeLR viability,-3.4,-0.3,.,6.9,-8.5,-0.6,1.8
Sa RN4220 lethal,10.7,.,2.8,0.7,-1.2,1.8,6.0
Bead autofluor,4552,3770,2434,6239,6455,4486,10449
PrP 5UTR inh,-1.8,-17.6,-14.6,-19.3,-2.0,-0.7,-15.0
ugtP null kill,-9.2,.,0.9,-17.4,11.7,3.3,1.1

Screening results: PubChem BioAssay, several laboratories
